Calb FLC: C. albicans growth modulation with fluconazole. growth inhibition, % (concentration not given with the values). 300,000 compounds, 0.57% hits. C. albicans CaCi-2 (fluconazole-resistant clinical isolate) + fluconazole, Alamar Blue growth, 48 h;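 active = most replicates above 75%; inconclusive = exactly half above 75%; inactive = most below 75%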;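 also: all wells also contain fluconazole at 8 µg/ml as a sub-toxic cotreatment; 0% = median of DMSO wells and 100% = median of geldanamycin control wells; wells of about 8 µL received 7.5 nL stock; the first replicate is given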
FGF22 binding: FGF22 (human) thermal shift binding. Q9HCT0. recombinant FGF22 thermal shift, SYPRO orange fluorescence; percent of sucrose octasulfate shift, DMSO zero. calls only at 9.99 µM. 340,000 compounds, 1.5% hits;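 active = melting point raised past a set limit in the mean and every replicate; inconclusive = no clear call; three in four hits are not shown here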
Target sequence (Q9HCT0 whole entry, looked up): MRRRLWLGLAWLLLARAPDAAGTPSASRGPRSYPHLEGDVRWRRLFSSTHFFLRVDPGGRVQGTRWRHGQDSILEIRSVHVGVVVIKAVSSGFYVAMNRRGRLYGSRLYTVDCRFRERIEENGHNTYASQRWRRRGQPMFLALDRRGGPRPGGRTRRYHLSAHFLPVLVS
MLL AF4-AF9 inh: inhibitors of human MLL-AF4/AF9 interaction | P42568 | AlphaScreen, biotin-AF4 peptide binding to FLAG-AF9 | inhibition, % at 10 µM | 350,000 compounds, 0.47% hits;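 active = every replicate reaching a set inhibition limit, whatever the replicate mean, cut at about 25% in these data; inconclusive = mean inhibition reaches that limit but some replicates miss it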;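 also: 0% = plate neutral control median and 100% = total signal loss; the record names both 10 and 1 µM as test concentration; the first replicate is given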
Target sequence (P42568 whole entry, looked up): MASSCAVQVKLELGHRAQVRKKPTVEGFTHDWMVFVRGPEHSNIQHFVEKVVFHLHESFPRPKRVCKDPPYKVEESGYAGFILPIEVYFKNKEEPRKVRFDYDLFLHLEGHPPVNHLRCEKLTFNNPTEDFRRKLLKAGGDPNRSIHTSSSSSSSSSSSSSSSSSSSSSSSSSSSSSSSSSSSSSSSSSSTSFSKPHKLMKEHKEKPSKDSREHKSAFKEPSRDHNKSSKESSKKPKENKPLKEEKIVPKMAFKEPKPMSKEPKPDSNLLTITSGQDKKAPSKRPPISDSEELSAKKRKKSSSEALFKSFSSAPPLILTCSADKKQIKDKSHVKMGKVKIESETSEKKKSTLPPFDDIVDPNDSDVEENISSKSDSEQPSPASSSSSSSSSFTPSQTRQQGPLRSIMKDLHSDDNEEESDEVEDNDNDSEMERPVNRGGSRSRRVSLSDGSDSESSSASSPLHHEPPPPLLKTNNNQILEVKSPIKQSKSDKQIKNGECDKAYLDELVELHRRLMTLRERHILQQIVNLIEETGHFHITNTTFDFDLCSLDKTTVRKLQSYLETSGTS
rRNA inh HTS: inhibits bacterial ribosomal RNA function over humanized ribosomes | AID 720706 | 350,000 compounds, 1.6% hits | GFP signal change (wild-type ribosome), % (concentration not given with the values) | E. coli WT GFP vs humanized-ribosome RFP mutants, fluorescence, 24 h; hits give low values; DMSO median 0, no signal -100;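 active = significant combined selectivity score with lowered wild-type GFP, culture density cut under 30%, mutant RFP and density less affected; inactive = any of these conditions unmet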; also: one replicate is shown; some compounds called inactive have numbers as strong as hits
T cruzi repl: blocks replication of Trypanosoma cruzi; T. cruzi beta-gal in NIH3T3, luminescence, 90 h; inhibition, % (test concentration not listed); 300,000 compounds, 1.4% hits;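 active = mean inhibition across valid replicates above about 55%, limit read from the data; inconclusive = mean below that limit but half or more replicates reach it; inactive = mean below it, under half of replicates reach it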;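 also: signal also drops with host cell toxicity which is not excluded here; 0% = plate median of DMSO wells and 100% = zero luminescence signal; higher percent means less beta-gal luminescence so fewer parasites; stock transfer was 50 nL into about 50 µL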
ALR H2O2 inh: human ALR oxidase inhibition via reduced H2O2. P55789. purified ALR, DTT oxidation, H2O2 HRP-luminol luminescence. inhibition, % (test concentration not listed). 290,000 compounds, 3.8% hits. AID 485317;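 active = mean and each replicate at 75% or more; inconclusive = only one of the two met; inactive = neither met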;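 also: stock transfer was 7.5 nL into about 7.5 µL; 0% = neutral wells and 100% = wells with inactivated enzyme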
Target sequence (P55789 whole entry, looked up): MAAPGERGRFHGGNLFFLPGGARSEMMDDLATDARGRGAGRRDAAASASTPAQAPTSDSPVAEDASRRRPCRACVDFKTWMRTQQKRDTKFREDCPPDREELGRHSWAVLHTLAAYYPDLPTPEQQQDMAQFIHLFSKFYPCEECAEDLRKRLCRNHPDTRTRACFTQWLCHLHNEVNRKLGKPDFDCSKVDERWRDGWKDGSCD
Beta apoptosis: blocks beta cell apoptosis | 300,000 compounds, 0.8% hits | INS-1E cytokine-induced death, ATP luminescence, 48 h; percent of positive-control rescue, neutral wells zero | protection from apoptosis, % (concentration not given with the values);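 active = all replicates at 75% or more, or half of them and the mean; inconclusive = half reach 75% but not the mean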;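 also: 0% = cytokine-treated negative control wells and 100% = positive control rescue; higher means more ATP so stronger rescue from cytokine killing; wells of about 40 µL received 100 nL stock; the first replicate is given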
RanGTP-Impb inh: inhibitors of RanGTP-importin-beta interaction, primary screen, biochemical, FRET, CFP-Ran, YFP-importin-beta, homogeneous. cell-free CFP-Ran/YFP-importin-beta FRET ratio. inhibition, % (no concentration beside the values). 300,000 compounds, 1.1% hits. AID 2216;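 active = most replicates above 15%; inconclusive = exactly half above 15%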;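 also: 0% = DMSO wells and 100% = Ran loaded with GDP instead of GTP; wells of about 40 µL received 100 nL stock; the first replicate is given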
rRNA inh HTS OD600: further read-out of rRNA inh HTS, marked with its call; OD600 change, %; measured here: OD600 growth;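 optical density of the mix in the first replicate; 0 = DMSO median and -100 = no signal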
rRNA inh HTS RFP: second read-out of rRNA inh HTS, no call of its own (marks repeat the call); RFP signal change, %; measured here: RFP humanized mutant strains;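 first replicate; 0 = DMSO median and -100 = no signal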
The depositor's hits bear a star; i = inactive; ? = inconclusive; nt = no result given. Not all compounds are listed. The share of hits here may be higher or lower than overall.

SMILES | Calb FLC | FGF22 binding | MLL AF4-AF9 inh | rRNA inh HTS | rRNA inh HTS OD600 | rRNA inh HTS RFP | T cruzi repl | ALR H2O2 inh | Beta apoptosis | RanGTP-Impb inh
Cn1nccc1C(=O)N1CCCC(Nc2ccc(F)cc2)C1 (stereo not given) | -1 | i | -0.6 | -1 | 0 | 0.0 | -5 | 72 | -7 | ?
O=C(COc1ccc(Cl)cc1)Nc1nc(-c2cccs2)cs1 | 1 | nt | nt | nt | nt | nt | -6 | 6 | 0 | -2.9
CCCn1c(SCC(=O)NC(C)c2ccccc2)n[nH]c1=O (stereo not given) | -10 | i | -3.0 | 7 | 8 | -0.6 | -10 | 1 | -4 | 2.3
Cc1nn(-c2cc(C(F)(F)F)ccc2Cl)c2nc(C(Cl)(Cl)Cl)[nH]c(=O)c12 | -8 | i | 0.7 | -15* | 4.6* | 4.8* | 3 | 2 | 21 | -2.3
Cc1ccc(NC(=O)C2CCCC2)c(Br)c1 | 12 | i | -5.7 | 6 | 1 | 0.4 | 20 | -11 | -4 | -2.2
C=CCN(CC=C)S(=O)(=O)c1ccc(NC(=S)NC(=O)/C=C/c2ccc(C)cc2)cc1 | 9 | nt | nt | nt | nt | nt | 11 | -5 | 4 | 5.3
CSCc1cc(N(C)c2ccccc2)nc(-c2ccccc2)n1 | 2 | i | 2.7 | -3 | -14 | -3.7 | 11 | 5 | 9 | -2.7
CCOc1cc(N2CCOCC2)c(OCC)cc1NC(=O)Cc1ccccc1OC | -12 | nt | nt | nt | nt | nt | 36 | 29 | 15 | 1.7
COc1ccc2c(=O)c(N3C(=O)c4ccccc4C3=O)coc2c1 | 6 | nt | nt | nt | nt | nt | 2 | 1 | 1 | -2.0
N#CCCN(C(=O)c1cc2c(s1)-c1ccccc1S(=O)(=O)C2)c1ccccc1 | 22 | i | -1.6 | -6 | 1 | 3.6 | -1 | 1 | 5 | 2.6
COc1ccccc1NC(=O)c1cc(Cl)nnc1Cl | 1 | i | -0.6 | 0 | 5 | -2.9 | -16 | nt | -6 | -1.9
CCOC(=O)c1c(/N=C/c2cccc([N+](=O)[O-])c2O)sc2c1CCC2 | 9 | i | 0.4 | 12 | -1 | 20 | 0 | 8 | -7 | 0.9
COc1ccccc1N1CCN(C(=O)c2ccc(CS(=O)(=O)c3ccccc3OC)o2)CC1 | -5 | nt | nt | nt | nt | nt | -4 | 25 | -1 | 1.9
COc1cc(C2Nc3cccc4cccc(c34)N2)ccc1O | -10 | i | 1.9 | 6 | 11 | -5.2 | 0 | -54 | -2 | -3.8
O=C(Nc1ccc(S(=O)(=O)Nc2ncccn2)cc1)c1ccc(S(=O)(=O)N2CCCC2)cc1 | -6 | i | -2.6 | 15 | 14 | 21 | 2 | 96* | -6 | -1.3
CCOc1ccc(C(=O)NC(C(=O)NCCc2ccc(S(N)(=O)=O)cc2)C(C)C)cc1 (stereo not given) | -2 | i | -4.1 | 7 | 15 | 0.5 | -9 | 0 | nt | -3.8
COc1ccc(-n2cccc2/C=C2\C(=N)N3N=C(c4ccco4)SC3=NC2=O)cc1 | 32 | i | -1.4 | -23* | -14* | -1.1* | -4 | 3 | 0 | -4.4
COc1cc(/C=N/NC(=O)c2nnn(-c3nonc3N)c2C(C)C)ccc1O | 31 | i | 2.1 | -1 | 5 | -2.9 | -4 | 99* | -2 | 5.3
O=S(=O)(/N=C(/Nc1ccc(F)cc1F)c1ccccc1)c1ccccc1 | 10 | nt | nt | nt | nt | nt | 5 | nt | -1 | 1.6
CCCCN(CC)CCCNC(=O)c1cc2c(=O)[nH]c3ccccc3c2s1 | 4 | i | 5.0 | 6 | 4 | 4.4 | 29 | 1 | -2 | -3.8
COc1ccccc1NC(=O)c1nnn(CC(=O)Nc2cccc(SC)c2)c1N | 3 | nt | nt | nt | nt | nt | 10 | -9 | -3 | ?
Cc1cc(S(=O)(=O)N2CCN(c3ncccn3)CC2)ccc1-n1cnnn1 | 6 | nt | nt | nt | nt | nt | 5 | 1 | 3 | 2.0
COCC(C)NC(=O)CSc1nc2ccccc2n1CCc1ccccc1 (stereo not given) | nt | i | -1.3 | -15 | -7 | 0.2 | -1 | -17 | 3 | nt
COc1ccccc1CNC(=O)c1ccc(NS(C)(=O)=O)cc1 | -4 | nt | nt | nt | nt | nt | -9 | -8 | -7 | 0.3
C/C(=N/NC(=O)CNS(=O)(=O)c1ccccc1)c1ccc(Br)cc1 | 3 | i | 2.3 | 4 | 8 | 2.6 | -6 | -3 | -4 | 2.8

In the list so far, these contain an aryl thioether with sulfur outside any ring.
SMILES | Calb FLC | FGF22 binding | MLL AF4-AF9 inh | rRNA inh HTS | rRNA inh HTS OD600 | rRNA inh HTS RFP | T cruzi repl | ALR H2O2 inh | Beta apoptosis | RanGTP-Impb inh
CCCn1c(SCC(=O)NC(C)c2ccccc2)n[nH]c1=O (stereo not given) | -10 | i | -3.0 | 7 | 8 | -0.6 | -10 | 1 | -4 | 2.3
COc1ccccc1NC(=O)c1nnn(CC(=O)Nc2cccc(SC)c2)c1N | 3 | nt | nt | nt | nt | nt | 10 | -9 | -3 | ?
COCC(C)NC(=O)CSc1nc2ccccc2n1CCc1ccccc1 (stereo not given) | nt | i | -1.3 | -15 | -7 | 0.2 | -1 | -17 | 3 | nt

Next compounds
SMILES | Calb FLC | FGF22 binding | MLL AF4-AF9 inh | rRNA inh HTS | rRNA inh HTS OD600 | rRNA inh HTS RFP | T cruzi repl | ALR H2O2 inh | Beta apoptosis | RanGTP-Impb inh
CCOC(=O)c1cc(C(=O)NN)c(=O)[nH]c1C | -4 | i | -0.7 | 2 | 0 | -2.9 | 0 | nt | 4 | 2.0
COc1ccc(N2C(=O)CCC(C(=O)N3CCN(c4ccccn4)CC3)C2c2ccc(F)cc2)cc1 (stereo not given) | 5 | i | -3.3 | 1 | -5 | -4.3 | 13 | nt | 2 | -3.6
CCCCC1=CC2=C(c3ccco3)C(=O)C(C)(OC(=O)c3ccc(OC)cc3)C(=O)C2=CN1CC(C)C (stereo not given) | 10 | i | nt | 15 | 18 | 6.5 | -1 | -9 | -3 | -0.5
CS(=O)(=O)c1ccc(C(=O)OCC(=O)N2CCCc3ccccc32)cc1 | -2 | i | -4.9 | 2 | 6 | 0.2 | -13 | -3 | 1 | -0.7
Nc1ccc(C(=O)n2c3ccccc3c3ccccc32)cc1 | -6 | nt | nt | nt | nt | nt | -28 | -4 | 10 | 0.7
COc1ccc2cc(C(c3nnnn3C3CCCCC3)N3CCCCCC3)c3nnnn3c2c1 (stereo not given) | -4 | nt | nt | nt | nt | nt | 6 | -2 | -7 | 1.8
Cc1ccc2nc(SCC(=O)Nc3nnc(SCC(N)=O)s3)[nH]c2c1 | 12 | nt | nt | nt | nt | nt | -9 | 2 | -12 | 2.3
O=C(CSc1ccc2nnc(-c3cccc(F)c3)n2n1)N1CCCc2ccccc21 | 5 | nt | nt | nt | nt | nt | 19 | nt | -4 | -0.1
O=C(COc1ccc(-n2cnnn2)cc1)Nc1ccc(Br)cc1F | nt | i | 0.6 | 12 | 8 | 0.5 | nt | -5 | 21 | nt
CCOc1ccccc1CN1C(=O)C2(OCCO2)c2ccccc21 | -15 | i | -8.8 | -21 | -19 | -3.8 | 15 | nt | -3 | -5.6
COc1ccccc1CNc1ccc([N+](=O)[O-])cc1C | 9 | i | 6.3 | -44 | -49 | -2.0 | 13 | -5 | 0 | 1.6
COc1ccc(S(=O)(=O)N2CCc3ccccc32)cc1C(=O)OCc1nnc(-c2ccccc2)o1 | -1 | nt | nt | nt | nt | nt | 12 | -1 | -2 | 4.4
COCCn1c(CN2CC(C)CC(C)C2)nc2c1c(=O)n(C)c(=O)n2C (stereo not given) | 22 | i | -7.9 | 2 | 6 | -5.6 | 4 | nt | -9 | 4.7
O=C(NN1C(=O)NC2(CCCCC2)C1=O)c1ccc(Cl)s1 | nt | i | 1.2 | 7 | 7 | 0.2 | nt | -2 | 0 | nt
CCN(CC)CCCNC(=O)CCc1c(C)n(CC)c2cc(-c3ccccc3OC)nn2c1=O | -6 | i | -3.0 | -5 | -7 | -0.7 | -9 | nt | -5 | 4.0
O=C(c1ccc(N2CCCCC2)c([N+](=O)[O-])c1)N(c1ccccn1)c1ccccn1 | 20 | i | 5.4 | -9 | -8 | -1.7 | -12 | nt | 3 | 1.1
CCOc1ccc(CC(=O)N2N=C(C)CC2(O)C(F)(F)F)cc1 (stereo not given) | 4 | i | 8.3 | 3 | 15 | 2.5 | 4 | -4 | -2 | -3.8
O=C(CSc1nc2ccccc2c(=O)n1-c1ccccc1)N1CCc2ccccc2C1 | -2 | nt | nt | nt | nt | nt | 26 | nt | 100* | -1.3
CCOc1ccccc1NC(=O)c1cc2ccccc2oc1=O | -7 | i | -3.1 | 19 | 18 | 3.1 | 1 | -1 | 0 | 4.2
Cc1cccc(C(=O)N(NC(=O)Oc2ccccc2)C(C)(C)C)c1 | -56 | nt | nt | nt | nt | nt | 8 | -2 | 2 | -2.7
Cc1n[nH]c(=O)c2c(NC(=O)CSc3ccccc3F)oc(C)c12 | -12 | i | -0.3 | 7 | 6 | -0.1 | -3 | 2 | -4 | ?
Cc1cc(C)nc(SCc2cc(=O)c(OC(=O)c3ccc(S(=O)(=O)N4CCCC4)cc3)co2)n1 | 3 | nt | nt | nt | nt | nt | 0 | 4 | -6 | -2.2
CCCc1nnc(NC(=O)CCC(=O)N2CCCCC2CC)s1 (stereo not given) | -3 | nt | nt | nt | nt | nt | -6 | -17 | -1 | -3.8
CC(=O)Nc1ccc(C#Cc2ccc(NC(C)=O)cc2)cc1 | -16 | nt | nt | nt | nt | nt | -3 | -3 | -5 | -2.2
COc1cccc(NC(=O)Nc2cccs2)c1 | 26 | nt | nt | nt | nt | nt | -10 | 29 | -7 | -2.3
S=C(Nc1cccnc1)Nc1ccccc1Br | 37 | i | 1.1 | 10 | 14 | 0.6 | -17 | -3 | 1 | -0.4
Cc1ccc(C(=O)NC(C(=O)Nc2cccc(S(N)(=O)=O)c2)C(C)C)cc1 (stereo not given) | -7 | i | 2.2 | -2 | 3 | 0.0 | -44 | -6 | -6 | -4.1
COc1ccc(N2CCN(C(CNC(=O)C3CCCCC3)c3cccnc3)CC2)cc1 (stereo not given) | -3 | nt | nt | nt | nt | nt | 52 | ? | 4 | 1.3
CN(Cc1ccon1)C(=O)CCc1nnc(CCCCc2ccccc2)o1 | -7 | i | -0.2 | -4 | 0 | -2.3 | -6 | nt | -10 | -5.0
O=C(Nc1nc(-c2ccc3c(c2)OCO3)cs1)c1ccncc1 | -6 | nt | nt | nt | nt | nt | 23 | -8 | 6 | -3.0

Quoted at random: 2 compounds from above.
SMILES | Calb FLC | FGF22 binding | MLL AF4-AF9 inh | rRNA inh HTS | rRNA inh HTS OD600 | rRNA inh HTS RFP | T cruzi repl | ALR H2O2 inh | Beta apoptosis | RanGTP-Impb inh
CCOC(=O)c1cc(C(=O)NN)c(=O)[nH]c1C | -4 | i | -0.7 | 2 | 0 | -2.9 | 0 | nt | 4 | 2.0
CCCc1nnc(NC(=O)CCC(=O)N2CCCCC2CC)s1 (stereo not given) | -3 | nt | nt | nt | nt | nt | -6 | -17 | -1 | -3.8

High-throughput results: PubChem, Broad Institute
